From PubChem
Beta cell apopt: blocks beta cell apoptosis; protection from apoptosis, % (concentration not given with the values); actives 0.8% (n = 300,000); INS-1E cytokine-induced death, ATP luminescence, 48 h; percent of positive-control rescue, neutral wells zero; AID 435005;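 active = all replicates at 75% or more, or half of them and the mean; inconclusive = half reach 75% but not the mean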;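 also: 0% = cytokine-treated negative control wells and 100% = positive control rescue; higher means more ATP so stronger rescue from cytokine killing; wells of about 40 µL received 100 nL stock; the first replicate is given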
MLL AF4-AF9 inh: MLL-AF4/AF9 protein interaction inhibition; AlphaScreen, biotin-AF4 peptide binding to FLAG-AF9; inhibition, % at 10 µM; actives 0.47% (n = 350,000);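 active = every replicate reaching a set inhibition limit, whatever the replicate mean, cut at about 25% in these data; inconclusive = mean inhibition reaches that limit but some replicates miss it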;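 also: 0% = plate neutral control median and 100% = total signal loss; the record names both 10 and 1 µM as test concentration; the first replicate is given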
Target sequence (P42568 whole entry, looked up): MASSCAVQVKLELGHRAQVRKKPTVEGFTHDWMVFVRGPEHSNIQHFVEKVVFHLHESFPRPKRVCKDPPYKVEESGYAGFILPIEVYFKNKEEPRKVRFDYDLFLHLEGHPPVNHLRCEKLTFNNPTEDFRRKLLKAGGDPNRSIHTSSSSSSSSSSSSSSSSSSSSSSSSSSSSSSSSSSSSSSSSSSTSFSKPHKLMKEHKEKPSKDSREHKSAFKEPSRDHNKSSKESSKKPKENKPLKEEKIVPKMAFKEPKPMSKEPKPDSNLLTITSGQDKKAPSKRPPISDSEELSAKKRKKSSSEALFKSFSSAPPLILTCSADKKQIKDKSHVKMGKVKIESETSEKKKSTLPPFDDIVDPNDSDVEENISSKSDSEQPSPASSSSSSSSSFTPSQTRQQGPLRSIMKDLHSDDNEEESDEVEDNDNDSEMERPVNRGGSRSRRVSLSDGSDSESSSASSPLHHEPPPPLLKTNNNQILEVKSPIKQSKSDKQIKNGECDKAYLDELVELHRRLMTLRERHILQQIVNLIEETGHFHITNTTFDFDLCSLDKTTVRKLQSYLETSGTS
Ecoli rRNA inh: inhibitors of bacterial rRNA selective over humanized ribosomes; E. coli WT GFP vs humanized-ribosome RFP mutants, fluorescence, 24 h; stronger effect = lower value; DMSO median 0, no signal -100; GFP signal change (wild-type ribosome), % (concentration not given with the values); actives 1.6% (n = 350,000); AID 720706;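 active = significant combined selectivity score with lowered wild-type GFP, culture density cut under 30%, mutant RFP and density less affected; inactive = any of these conditions unmet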; also: one replicate is shown; some compounds called inactive have numbers as strong as hits
E coli growth: inhibitors of Escherichia coli growth | OD600 absorbance (concentration not given with the values) | AID 1053175 | actives 0.21% (n = 330,000) | OD600, 23 h; stronger effect = lower value;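 active = OD600 absorbance below the run mean of sample wells minus 3.6 SD, in any replicate, cut at about 0.56 in these data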;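 also: stock transfer was 300 nL into about 60 µL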
T cruzi inh: T. cruzi replication inhibition. actives 1.4% (n = 300,000). T. cruzi beta-gal in NIH3T3, luminescence, 90 h. AID 1885. inhibition, % (test concentration not listed);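 active = mean inhibition across valid replicates above about 55%, limit read from the data; inconclusive = mean below that limit but half or more replicates reach it; inactive = mean below it, under half of replicates reach it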;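 also: signal also drops with host cell toxicity which is not excluded here; 0% = plate median of DMSO wells and 100% = zero luminescence signal; higher percent means less beta-gal luminescence so fewer parasites; stock transfer was 50 nL into about 50 µL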
FGF22 binding: shifts melting point of recombinant human FGF22; Q9HCT0; recombinant FGF22 thermal shift, SYPRO orange fluorescence; percent of sucrose octasulfate shift, DMSO zero; calls only at 9.99 µM; actives 1.5% (n = 340,000);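 active = melting point raised past a set limit in the mean and every replicate; inconclusive = no clear call; three in four hits are not shown here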
Target sequence (Q9HCT0 whole entry, looked up): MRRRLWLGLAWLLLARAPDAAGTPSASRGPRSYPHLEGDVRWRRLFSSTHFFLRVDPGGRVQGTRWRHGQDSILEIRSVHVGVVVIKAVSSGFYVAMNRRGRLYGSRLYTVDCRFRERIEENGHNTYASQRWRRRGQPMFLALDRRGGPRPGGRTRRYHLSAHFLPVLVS
UCH37 DUB inh: inhibitors of human deubiquitinating enzyme UCH37. inhibition, % (test concentration not listed). Q9Y5K5. AID 588478. actives 0.33% (n = 330,000). purified proteasome/UCH37, Ub-AMC cleavage fluorescence;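 active = mean of two replicates above 20%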;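 also: 0% = compound-free wells with enzyme and 100% = wells lacking proteasome; stock transfer was 100 nL into about 20 µL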
Target sequence (Q9Y5K5 whole entry, looked up): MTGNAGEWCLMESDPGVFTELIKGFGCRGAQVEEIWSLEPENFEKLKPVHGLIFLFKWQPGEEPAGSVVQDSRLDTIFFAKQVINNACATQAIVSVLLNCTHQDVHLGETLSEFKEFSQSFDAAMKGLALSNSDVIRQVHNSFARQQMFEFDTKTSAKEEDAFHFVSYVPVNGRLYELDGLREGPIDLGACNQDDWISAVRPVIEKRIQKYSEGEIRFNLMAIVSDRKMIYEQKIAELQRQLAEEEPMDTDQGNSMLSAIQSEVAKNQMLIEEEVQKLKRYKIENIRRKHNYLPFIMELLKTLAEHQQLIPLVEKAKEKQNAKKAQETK
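Material: human UCH37 enzyme supplied as purified proteasome complex / Amount: 0.15 nM proteasome as dispensed / Buffer or medium: pH 7.4 Tris-HCl (50 mM) with ovalbumin, ATP-MgCl2, DTT / Times: preincubation 30 min, reaction 25 min, room temperature / Technique: AMC fluorescence from Ub-AMC cleavage, excitation 355 nm, emission 460 nm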
Bfl-1 A1 inh: inhibitors of the anti-apoptotic protein A1, read as caspase activation; MEF A1-2A-BIM cells, Caspase-Glo 3/7 luminescence, 3 h; percent of clofoctol response, vehicle zero; AID 2462; actives 0.066% (n = 330,000); caspase activation, % (test concentration not listed);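 active = over half of replicate activation scores above 10%, or exactly half above 10 with the replicate mean above 10; inconclusive = replicate mean below 10 yet half the replicates above 10; inactive = over half of replicates below 10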;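 also: wells of about 30 µL received 50 nL stock; many hits fall short of the cut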
Ecoli rRNA inh OD600: further read-out of Ecoli rRNA inh, marked with its call; OD600 change, %; measured here: OD600 growth;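 optical density of the mix in the first replicate; 0 = DMSO median and -100 = no signal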
Ecoli rRNA inh RFP: further read-out of Ecoli rRNA inh, marked with its call; RFP signal change, %; measured here: RFP humanized mutant strains;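 first replicate; 0 = DMSO median and -100 = no signal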
Numbers without * were called inactive; i = inactive; u = inconclusive; x = no result given; & = joins results of further samples. A portion of the library, so the mix of outcomes need not match the whole.

SMILES | Beta cell apopt | MLL AF4-AF9 inh | Ecoli rRNA inh | Ecoli rRNA inh OD600 | Ecoli rRNA inh RFP | E coli growth | T cruzi inh | FGF22 binding | UCH37 DUB inh | Bfl-1 A1 inh
Cc1oc2c(CN3CCOCC3)c(O)ccc2c(=O)c1-c1ccc(Cl)cc1 | 3 | u | -13 | 16 | 4.0 | 0.71 | -4 | i | -314 | 0.7
COc1ccc(-c2ccc3c(c2)S(=O)(=O)c2cccc(C(=O)NCCOc4ccccc4Cl)c2C3=O)cc1OC | 91* | 3.2 | 8 | 15 | -4.3 | 0.6 | x | i | -0.3 | -0.6
c1ccc(CN2CCCC3(CCCN(Cc4nc(CC5CC5)no4)C3)C2)cc1 (centres undefined) | -4 | 1.7 | 0 | -1 | 4.0 | 0.69 | 54 | i | 0.1 | -0.6
CS(=O)(=O)N1CCC(NC(=O)Nc2ccc(OC(F)(F)F)cc2)CC1 | 2 | 2.8 | 9 | 13 | 1.6 | 0.78 | x | i | 3.1 | 1.4
O=C(COC(=O)C1=COCCO1)Nc1ccc(F)cc1 | -6 | -0.9 | 3 | 14 | 0.0 | 0.65 | 2 | i | -0.7 | -0.3
CC(C)(C)NC(=O)CN(C(=O)C1CSC(=O)C1)c1ccccc1F (centres undefined) | -7 | 0.0 | 11 | 11 | -10 | 0.68 | -3 | i | -0.8 | 0.5
CC1(C)Cc2nc3n[nH]c(N)c3cc2CO1 | -2 | x | x | x | x | 0.67 | -16 | x | 2.5 | 0.3
CC(OC(=O)c1cccs1)C(=O)NCC1CCCO1 (centres undefined) | -2 | x | x | x | x | 0.71 | 0 | x | 0.0 | -0.4
CCc1ccc(C(=O)NC(CC(C)C)C(=O)O)cc1 (centres undefined) | -1 | x | x | x | x | 0.74 | -17 | x | 4.4 | 0.1
COc1ccc(CC(=O)Nc2cc(S(=O)(=O)N3CCCC3)ccc2Cl)c(OC)c1 | 3 | -8.5 | -16 | -17 | 1.6 | 0.7 | x | i | 0.4 | 1.4
Cn1c(N)c(C(=O)COC(=O)Cn2cc(C(F)(F)F)ccc2=O)c(=O)n(C)c1=O | -1 | x | x | x | x | 0.76 | -22 | x | -1.7 | -0.2
CCN(CC)S(=O)(=O)c1cc(NC(=O)C(CC(C)C)NC(N)=O)ccc1C (centres undefined) | -2 | -0.3 | 10 | 3 | 0.6 | 0.74 | -5 | i | -0.3 | 1.1
COc1ccc(S(=O)(=O)N2CCCCC2C(=O)O)cc1 (centres undefined) | 0 | -5.5 | 16 | 4 | 1.1 | 0.72 | -28 | i | 0.5 | 0.5
CC(=O)c1csc(-c2ccccc2)n1 | -2 | -1.2 | 21 | 14 | 2.1 | 0.67 | 0 | i | 2.8 | -1.7
O=C(CCC(=O)Nc1ccccc1)N/N=C/c1ccncc1 | -6 | -8.9 | 6 | 7 | -10 | x | 1 | i | x | 0.2

Gathered by group, the entries above containing a COOH group (two)
SMILES | Beta cell apopt | MLL AF4-AF9 inh | Ecoli rRNA inh | Ecoli rRNA inh OD600 | Ecoli rRNA inh RFP | E coli growth | T cruzi inh | FGF22 binding | UCH37 DUB inh | Bfl-1 A1 inh
CCc1ccc(C(=O)NC(CC(C)C)C(=O)O)cc1 (centres undefined) | -1 | x | x | x | x | 0.74 | -17 | x | 4.4 | 0.1
COc1ccc(S(=O)(=O)N2CCCCC2C(=O)O)cc1 (centres undefined) | 0 | -5.5 | 16 | 4 | 1.1 | 0.72 | -28 | i | 0.5 | 0.5

Additional compounds:
SMILES | Beta cell apopt | MLL AF4-AF9 inh | Ecoli rRNA inh | Ecoli rRNA inh OD600 | Ecoli rRNA inh RFP | E coli growth | T cruzi inh | FGF22 binding | UCH37 DUB inh | Bfl-1 A1 inh
Cc1ccccc1C1=Nn2c(nnc2-c2ccco2)SC1 | 3 | 0.2 | -3 | 5 | 0.8 | 0.65 | -14 | i | 2.7 | -1.0
O=C(NCc1ccccn1)c1ccc(Cl)c(S(=O)(=O)N2CCCCCC2)c1 | -10 | -9.3 | -4 | -21 | 0.3 | 0.62 | 10 | i | -0.5 | -0.2
COc1cc(N=Cc2c(O)c3ccccc3oc2=O)c(OC)cc1Cl | 0 | 2.9 | 2 | 3 | -3.8 | 0.68 | -20 | i | 3.3 | 0.6
O=C(NC1CCN(C(=S)Nc2ccc(F)cc2)CC1)C1CCCCC1 | -4 | -15 | 10 | 11 | -0.5 | 0.72 | -6 | i | 3.6 | -1.7
CC(C)CCn1c(SCC(N)=O)nc2c1c(=O)n(C)c(=O)n2C | 5 | -5.3 | 4 | 2 | -0.8 | 0.72 | 12 | i | 2.4 | 0.3
CN1CCN(CC(C)(C)NS(=O)(=O)c2ccc(Cl)cc2)CC1 | -2 | x | x | x | x | 0.67 | 70* | x | -0.1 | 0.1
Cc1c(NC(C)c2ccccc2O)c(=O)n(-c2ccccc2)n1C (centres undefined) | -8 | 6.3 | 20 | 1 | -6.3 | 0.71 | 7 | i | 5.6 | -0.6
O=C(CSc1ccc2c(c1)OCCO2)N1CCN(c2ccccc2)CC1 | -1 | -5.4 | x | x | x | 0.7 | x | i | 5.5 | -1.2
CCOC(=O)c1sc(NC(=O)COc2ccc3c(c2)OCO3)nc1C | -5 | -0.6 | 1 | 6 | -1.5 | 0.67 | 11 | i | -0.2 | -0.3
O=C(N/N=C/c1ccco1)c1ccc(OCc2ccccc2)cc1 | x | 5.6 | 19 | -4 | 0.1 | x | 5 | i | x | 1.7
COc1ccc(C2OC(=O)CC2C(=O)NC2CCCC(C)C2C)cc1OC (centres undefined) | 0 | x | x | x | x | 0.69 | 3 | x | 2.3 | 0.9
CCOC(=O)C1=C(C)NC(C)=C(C(=O)OCC)C1c1ccc([N+](=O)[O-])s1 | -6 | 5.4&9.9 | -25&-13 | -24&-24 | 14&5.7 | 0.68 | 16 | i | 4.1 | -0.3
COC(=O)c1ccc(CSc2nnc3ccccn23)o1 | 0 | x | x | x | x | 0.68 | -9 | x | 3.2 | 1.7
O=C1CN(CC(=O)Nc2ccc(Cl)cc2)CCN1 | 1 | x | x | x | x | 0.71 | 0 | x | -0.1 | 1.1
O=C(Oc1ccccc1)c1ccc(COC(=O)c2cnccn2)cc1 | -5 | x | x | x | x | 0.71 | -2 | x | 0.9 | 1.0
Cc1ccc(NC(=O)/C(=C/c2cccs2)NC(=O)c2ccco2)c(C)c1 | -1 | -2.7 | -30* | -17* | -13* | 0.7 | -14 | i | 5.8 | -0.2
Cc1ccc(CNCc2ccc3c(c2)OCO3)c(C)c1 | -3 | -1.7 | 4 | 5 | -0.3 | 0.71 | -7 | i | 0.0 | 0.9
CCn1c(C)c2c(C)nnc(C)c2c1C | -7 | x | 6 | 6 | -3.8 | 0.77 | -6 | x | -5.1 | 0.6
O=C1CN(C(=S)NC(=O)c2ccc(-c3ccccc3)cc2)CCN1 | -4 | -8.7 | 4 | 2 | 1.0 | 0.68 | -14 | i | 3.1 | -1.5
O=C(NCC1CCCO1)c1ccc(Oc2ccc([N+](=O)[O-])cc2)cc1 (centres undefined) | 7 | -1.0 | 1 | -3 | -0.2 | 0.69 | 8 | i | 3.7 | 0.0
COC(=O)c1ccc(CNC(=O)C2CCC(=O)N(CCN3CCOCC3)C2)cc1 (centres undefined) | -2 | -1.5 | 2 | 2 | -1.9 | 0.7 | -24 | i | 2.6 | 0.9
Cc1cccc(NC(=O)CSc2nnc(CNC(=O)c3ccco3)o2)c1 | -7 | -4.2 | 0 | 2 | 2.8 | 0.64 | 5 | i | -0.2 | -1.3
COc1ccc(CC(NC(C)=O)C(=O)NC2CCN(C(=O)c3ccccc3F)CC2)cc1 (centres undefined) | 4 | 1.7 | 6 | 2 | 0.6 | 0.65 | -3 | i | 4.2 | 0.8
Cc1ccc(NC(=O)c2ccccc2OCC(=O)Nc2cccc(Cl)c2C)nc1 | -3 | x | x | x | x | 0.66 | 19 | x | 0.1 | 1.3
CCOC(=O)c1cccc(NC(=O)CSc2nnc(-c3ccncc3)n2CCCOC)c1 | 11 | x | x | x | x | 0.67 | -2 | x | 1.8 | 1.3
CC(=O)c1c(C)[nH]c(C(=O)OC2CCOC2=O)c1C (centres undefined) | 8 | x | x | x | x | 0.73 | -9 | x | 4.3 | 0.4
COc1ccc(N(C)C(=O)CCC(=O)Nc2ccc3nc(N4CCOCC4)cc(C)c3c2)c(OC)c1 | -2 | x | x | x | x | 0.7 | 15 | x | -359 | 0.2
S=c1[nH]nc(CCCc2n[nH]c(=S)o2)o1 | 1 | -3.0 | 16 | 11 | -0.3 | 0.68 | -19 | i | 0.7 | 1.2
CCOc1ccccc1N1C(=O)c2ccc(C(=O)Nc3cccnc3)cc2C1=O | -4 | 6.7 | 2 | 2 | 0.5 | 0.7 | -4 | i | 3.7 | 0.0
N#Cc1cccc(C(=O)Nc2ccc(S(=O)(=O)Nc3nccs3)cc2)c1 | -1 | 0.5 | -7 | 0 | 1.4 | 0.68 | x | i | 4.1 | 0.3
O=C(/C=C/c1ccc(Cl)cc1)NC(=S)Nc1ccc(CN2CCOCC2)cc1 | -3 | -0.8 | 4 | 8 | 3.5 | 0.7 | -18 | i | 5.8 | 0.0
O=C(Nc1ccnn1C1CCN(C/C=C/c2ccccc2)CC1)c1cccc(F)c1 | 7 | 9.6 | 11 | 5 | 2.7 | 0.67 | 7 | i | 5.8 | 1.2
C=CCSc1ncccc1C(=O)NCCc1ccccc1 | 3 | 1.0 | 13 | 6 | 2.2 | 0.64 | 4 | i | 4.1 | -0.1
Cc1ccc(S(=O)(=O)NC(=NCC(=O)O)c2ccccc2)cc1 | 6 | x | x | x | x | 0.73 | -9 | x | 3.3 | -0.3
O=C(O)CCN(CCC(=O)O)c1nnc(SCc2ccccc2)s1 | -1 | x | x | x | x | 0.72 | -7 | x | 2.3 | 0.4
NC(=O)C1CCN(CC(=O)Nc2nccs2)CC1 | x | 4.9 | 7 | 3 | 0.5 | 0.7 | -14 | i | -0.9 | 0.1
CN(C)C(=O)c1cc(C(=O)c2ccc(C(F)(F)F)cc2F)c[nH]1 | -1 | -1.9 | 9 | 10 | -13 | 0.67 | -15 | i | 4.0 | -0.4
Cc1ccc(-c2[nH]ncc2CN2CCN(C(=O)c3cccs3)CC2)cc1C | -6 | -7.2 | -6 | -30 | -1.6 | 0.62 | 30 | i | 0.4 | 0.3
C=CCn1c(C2CC2)n[nH]c1=S | -4 | -1.1 | 28 | 19 | 1.7 | 0.68 | -13 | i | 0.8 | -0.2
O=C(NCCC1=CCCCC1)c1cccc(S(=O)(=O)N2CCCCC2)c1 | 7 | -0.3 | 2 | 20 | -2.1 | 0.7 | 9 | i | 4.7 | 0.1
Cc1oc(-c2ccccc2F)nc1CS(=O)(=O)CC(=O)NCCCN1CC(C)CC(C)C1 (centres undefined) | -2 | 0.3 | 4 | 0 | -1.7 | 0.66 | 2 | i | 5.6 | -0.3
